A1 inh – inducers of caspase activity in MEF A1-2A-BIM cells, primary screen, A1 inhibitor project, cell-based, CaspaseGlo luminescence; caspase-Glo luminescence, 3 h; percent of clofoctol signal, DMSO as zero; caspase activation, % (test concentration not listed); 21,000 compounds, 0.51% hits;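 active = most replicate scores above 10, or exactly half above 10 with mean activity above 10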;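 also: effector caspase 3 and 7 activity cleaving a DEVD luciferin substrate; 50 nL library stock added to about 30 µL; numbers are from one replicate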
BJeLR viab HTS – BJeLR cell viability loss, primary screen, luminescence, CellTiterGlo ATP | BJeLR fibroblasts viability, 48 h; HRASV12, hTERT and SV40 LT/ST transformed | viability loss activity score, % (concentration not given with the values) | 30,000 compounds, 0.64% hits | AID 2275, 2010; in the data active = viability loss activity score above about 50%; about a fifth of its hits are not listed in these tables;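 also: higher score means fewer live cells and less ATP luminescence; stock transfer was 50 or 100 nL into about 30 µL; 0% = vehicle wells and 100% = a reference killing control; one replicate is shown; the record names a cut of 85%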
* = called active by the depositor; x = no result given.

Each structure is followed by: A1 inh | BJeLR viab HTS
O=C1OC(C2OC(=O)c3ccccc32)c2ccccc21 (stereo unspecified)
    x | 2.5
CNC[C@@H]1Oc2ccc(NC(=O)Nc3ccc(F)cc3)cc2C(=O)N([C@H](C)CO)C[C@@H]1C
    0.6 | 0.9
C[C@@H]1CN([C@@H](C)CO)C(=O)c2cc(NS(=O)(=O)c3ccccc3)ccc2O[C@H]1CN(C)Cc1ccc(C(=O)O)cc1
    -0.4 | -3.9
COc1ccc(NC(=O)Nc2ccc3c(c2)C(=O)N([C@@H](C)CO)C[C@@H](C)[C@H](CN(C)C(=O)NC2CCCCC2)O3)cc1
    0.0 | 3.7
COc1ccc(S(=O)(=O)Nc2ccc3c(c2)C(=O)N([C@H](C)CO)C[C@H](C)[C@@H](CN(C)Cc2ccccc2)O3)cc1
    -0.4 | -3.0
C[C@@H]1CN([C@@H](C)CO)C(=O)c2cc(NC(=O)CCC(F)(F)F)ccc2O[C@H]1CN(C)Cc1ccc(-c2ccccc2)cc1
    0.3 | 2.2
CSC1=NSC2=NC(=O)/C(=C\c3cccs3)C(=N)N12
    x | 28
C[C@H](CO)N1C[C@H](C)[C@H](CN(C)C(=O)NC2CCCCC2)Oc2ccc(NC(=O)Nc3ccc4c(c3)OCO4)cc2C1=O
    0.8 | -1.7
COc1ccc(NC(=O)Nc2ccc3c(c2)C(=O)N([C@H](C)CO)C[C@H](C)[C@@H](CN(C)S(=O)(=O)c2cn(C)cn2)O3)cc1
    -0.1 | 0.2
CCCCC/C=C\C/C=C\CCCCCCCC(=O)OC(CO)CO
    0.7 | -2.2
Cn1ncc2c1ncn1nc(-c3ccccc3)nc21
    -4.1 | 3.5
Cc1cc(C(=O)NC2CCCCC2)no1
    x | 12
S=C(NCCN1CCOCC1)Nc1ccc(Nc2ccccc2)cc1
    -0.2 | 3.1
CC1CC(O)CC(C)(C)C1(O)/C=C/C(CO)O[C@@H]1O[C@H](CO)[C@@H](O)[C@H](O)[C@H]1O (stereo partly specified)
    0.6 | 15
C=CCn1c(OCc2ccccc2)n[nH]c1=S
    0.9 | -0.6
C[C@H]1CN([C@@H](C)CO)C(=O)c2cc(NC(=O)Cc3ccccc3)ccc2O[C@@H]1CN(C)Cc1ccc(Oc2ccccc2)cc1
    0.5 | -1.8
CC(CC(=O)NCc1ccccc1)CC1=NS(=O)(=O)c2ccccc2N1 (stereo unspecified)
    0.1 | 2.1
C[C@H](CO)N1C[C@H](C)[C@H](CN(C)Cc2ccccc2)Oc2ccc(NC(=O)Nc3cccc4ccccc34)cc2C1=O
    0.3 | -1.4
COCCn1c(CCC(=O)NCc2ccc(OC)cc2)nc2cccnc21
    -0.4 | -2.1
CCOC(=O)N1CCC(NC(=O)CS(=O)(=O)Cc2nc(-c3ccc(C)cc3)oc2C)CC1
    x | -0.2

(continued)
Each structure is followed by: A1 inh | BJeLR viab HTS
C/C(=C\CC(C)(C)CCC(=O)c1ccoc1)C(=O)O
    0.2 | 1.5
O=C(O)c1cc(O)c2c(c1)C(=O)c1cccc(O)c1C2=O
    -1.0 | -3.8
O=C(NC1CCCc2ccccc21)c1ccccc1 (stereo unspecified)
    0.8 | 2.7
Cc1cc(C)n(-c2ccc(-n3cccc3/C=C(/C#N)S(=O)(=O)c3ccccc3)cc2)n1
    -0.8 | 1.3
Cc1c(Cl)cccc1NC(=S)NCC(c1ccccc1)c1c[nH]c2ccccc12 (stereo unspecified)
    1.7 | -0.1
CNC(=O)c1sc2nc(C)cc(C)c2c1-n1cccc1
    0.5 | 2.0
COc1cc(O)c(C(=O)CCc2ccc(OC)c(OC)c2)c(OC)c1
    -0.2 | -3.3
C[C@H](CO)N1C[C@H](C)[C@H](CN(C)S(=O)(=O)c2ccc(Cl)cc2)Oc2ccc(NS(=O)(=O)c3cn(C)cn3)cc2C1=O
    -0.5 | -1.0
CC1CC(NC(=S)NC2CC3C=CC2C3)CC(C)(C)C1 (stereo unspecified)
    x | -9.1
CN(C)C(=S)NC(Cc1ccccc1)c1ccccc1 (stereo unspecified)
    2.0 | 2.5
C[C@H]1CN([C@@H](C)CO)C(=O)c2cc(NC(=O)CCCN(C)C)ccc2O[C@H]1CN(C)S(=O)(=O)c1ccc(F)cc1
    -0.2 | -3.2
COc1ccc(NC(=O)Nc2cccc3c2O[C@H](CN(C)S(=O)(=O)c2cn(C)cn2)[C@@H](C)CN([C@H](C)CO)C3=O)cc1
    x | 1.4
Cc1ccc(C)n1-c1nn(S(=O)(=O)c2cccc(C(F)(F)F)c2)c2cccc(F)c12
    -0.4 | -2.5
Cc1ccc(COc2ccc(I)cc2)cc1
    -0.1 | -0.1
Cn1nc(C(C)(C)C)cc1C(=O)NC1CCCCNC1=O (stereo unspecified)
    0.2 | 3.0
CCOc1nc(NCCC2=CCCCC2)nc(OCC)n1
    x | -3.2
C[C@H](CO)N1C[C@H](C)[C@@H](CN(C)S(C)(=O)=O)Oc2c(NC(=O)C3CC3)cccc2C1=O
    x | 3.0
N=c1ccccn1CC(O)COc1ccccc1 (stereo unspecified)
    0.7 | -5.1
O=C(NC1CCCCNC1=O)c1cn(S(=O)(=O)c2ccccc2)c2ccccc12 (stereo unspecified)
    0.6 | -7.0
O=c1c2ccccc2nnn1CN1CCCCC1
    0.6 | 5.9

(next part)
| Structure | A1 inh | BJeLR viab HTS |
| --- | --- | --- |
| COc1cccc(C2C(C(=O)O)c3ccccc3C(=O)N2C)c1 (stereo unspecified) | x | 1.5 |
| Nc1ccc(S(=O)(=O)c2ccc(N)cc2)cc1 | -0.3 | -5.6 |
| Cc1noc(C)c1S(=O)(=O)Nc1ccc2c(c1)C(=O)N([C@@H](C)CO)C[C@@H](C)[C@@H](CN(C)Cc1ccc(C(=O)Nc3ccccc3N)cc1)O2 | x | 12 |
| O=C(CSc1nc2ccccc2nc1N1CCOCC1)NCc1ccc2c(c1)OCO2 | 0.1 | 0.2 |
| COC(=O)C1=C(C)N=C2SCCC(=O)N2C1c1ccccc1 (stereo unspecified) | 0.1 | 2.7 |
| CCc1ccc(NC(=O)c2cnn3ccccc23)cc1 | -7.1 | 8.9 |
| COc1ccc(CN(C)C[C@H]2Oc3ccc(NC(=O)Cn4cnnn4)cc3C(=O)N([C@H](C)CO)C[C@H]2C)cc1 | 1.0 | -3.2 |
| CCOc1ccc(NC(=O)CSC2=NCCS2)cc1 | x | -1.1 |
| C[C@@H]1CN([C@@H](C)CO)C(=O)c2cccc(NS(=O)(=O)c3cccs3)c2O[C@@H]1CN(C)C(=O)Nc1ccc(C(F)(F)F)cc1 | x | 2.9 |
| CSc1cccc(NC(=S)Nc2cccc(SC)c2)c1 | 0.1 | -7.9 |
| Cc1noc(C)c1S(=O)(=O)Nc1cccc2c1O[C@H](CN(C)C(=O)Nc1cccc3ccccc13)[C@H](C)CN([C@@H](C)CO)C2=O | x | 0.1 |
| Cc1noc(C)c1NC(=O)Nc1ccc2c(c1)C(=O)N([C@@H](C)CO)C[C@@H](C)[C@H](CN(C)C(=O)NC1CCCCC1)O2 | 0.0 | -2.9 |
| Cc1noc(C)c1NC(=O)Nc1cccc2c1O[C@H](CN(C)C(=O)Nc1cccc3ccccc13)[C@H](C)CN([C@H](C)CO)C2=O | x | 8.0 |
| C[C@H](CO)N1C[C@H](C)[C@@H](CN(C)Cc2ccccc2)Oc2ccc(NC(=O)c3ccncc3)cc2C1=O | 0.3 | 1.0 |
| C[C@@H]1CN([C@@H](C)CO)C(=O)c2cc(NS(=O)(=O)c3ccc(F)cc3)ccc2O[C@@H]1CN(C)S(=O)(=O)c1ccc(F)cc1 | -0.5 | -2.3 |
| O=C1c2ccccc2NC(c2ccccc2)N1CCCN1CCOCC1 (stereo unspecified) | 0.0 | 7.5 |
| C[C@H]1CN([C@@H](C)CO)C(=O)c2cc(NC(=O)c3ccncc3)ccc2O[C@H]1CN(C)Cc1ccc(C(F)(F)F)cc1 | -0.3 | -2.7 |
| Cc1ccc(S(=O)(=O)Nc2ccc3c(c2)C(=O)N([C@@H](C)CO)C[C@H](C)[C@H](CN(C)C(=O)Nc2ccccc2)O3)cc1 | 0.7 | -3.9 |
| CC1(C)CC[C@]2(C(=O)O[C@@H]3O[C@H](CO)[C@@H](O)[C@H](O)[C@H]3O)CC[C@]3(C)C(=CCC4[C@@]5(C)CC[C@H](O[C@@H]6O[C@H](C(=O)O)[C@@H](O[C@@H]7O[C@H](CO)[C@@H](O)[C@H](O)[C@H]7O)[C@H](O)[C@H]6O)C(C)(C)C5CC[C@]43C)C2C1 (stereo partly specified) | 0.3 | 1.6 |
| C[C@@H]1CN([C@@H](C)CO)C(=O)c2cccc(NC(=O)C3CC3)c2O[C@H]1CN(C)C(=O)Nc1ccccc1 | x | -4.7 |

(more compounds)
| Structure | A1 inh | BJeLR viab HTS |
| --- | --- | --- |
| Cc1noc(C)c1NC(=O)N(C)C[C@@H]1Oc2c(NS(=O)(=O)c3ccccc3)cccc2C(=O)N([C@@H](C)CO)C[C@H]1C | x | -1.4 |
| CCCCS(=O)(=O)NC1=NCN(Cc2ccco2)CN1 | 0.5 | -7.5 |
| CN(Cc1ccccc1)C(=O)C1CCCN(Cc2ccc(Cl)cc2)C1 (stereo unspecified) | x | 0.3 |
| Cc1noc(C)c1NC(=O)Nc1ccc2c(c1)C(=O)N([C@@H](C)CO)C[C@H](C)[C@@H](CN(C)Cc1ccccc1)O2 | -0.8 | -1.3 |
| COc1ccc(C2=NN(C(=O)c3ccccc3O)C(O)(C(F)(F)F)C2)cc1 (stereo unspecified) | x | 6.0 |
| Cc1ccc(S(=O)(=O)N(C)C[C@@H]2Oc3ccc(NC(=O)Nc4ccc(C(F)(F)F)cc4)cc3C(=O)N([C@H](C)CO)C[C@H]2C)cc1 | 0.2 | 1.2 |
| COc1ccc2c(c1)-c1c(ssc1=S)C(C)(C)N2 | -0.1 | 7.4 |
| COc1ccc(NC(=O)N(C)C[C@H]2Oc3c(NC(=O)c4ccc(-c5nccs5)cc4)cccc3C(=O)N([C@H](C)CO)C[C@@H]2C)cc1 | x | 0.2 |
| Cc1ccc(S(=O)(=O)N(c2nc(NC(C)C)nc(NC(C)C)n2)n2cnnc2)cc1 | 0.1 | -4.1 |
| Cc1c(C(=O)NC2CCCCC2)c(C)n2cn[nH]c(=O)c12 | 0.5 | 2.3 |
| CN(C)CCCNc1oc(-c2ccc(F)cc2)nc1C#N | x | -13 |
| O=C1N=C(N2CCCC2)S/C1=C\c1ccccc1O | 0.5 | -1.0 |
| C=CCN1C(=O)C(Cc2ccc(O)cc2)NC1=S (stereo unspecified) | 0.6 | 2.6 |
| Cc1[nH]n(-c2ccccc2)c(=O)c1/C=C1\C=NN=C1c1ccccc1 | -0.1 | 1.9 |
| CC(C)NC(=O)N(C)C[C@H]1Oc2ccc(NS(=O)(=O)c3cccs3)cc2C(=O)N([C@H](C)CO)C[C@H]1C | 0.2 | -1.1 |
| N#CCCn1nc(-c2ccc(F)cc2)ccc1=O | x | -0.5 |
| Cc1ccc(S(=O)(=O)Nc2ccc3c(c2)C(=O)N([C@H](C)CO)C[C@H](C)[C@H](CN(C)CC2CC2)O3)cc1 | 0.2 | -2.0 |
| COc1ccc2c(c1OC)C(=O)OC2C1c2c(cc3c(c2OC)OCO3)CCN1C (stereo unspecified) | -0.1 | 6.0 |
| C[C@@H]1CN([C@@H](C)CO)C(=O)c2cccc(N(C)C)c2O[C@@H]1CN(C)C(=O)Nc1ccc(F)cc1 | x | 4.0 |
| C[C@@H]1CN([C@H](C)CO)C(=O)c2cccc(NC(=O)Nc3ccc(C(F)(F)F)cc3)c2O[C@H]1CN(C)Cc1ccc2c(c1)OCO2 | x | 2.8 |

Structures shown so far with a furan ring, fused or not (2):
| Structure | A1 inh | BJeLR viab HTS |
| --- | --- | --- |
| C/C(=C\CC(C)(C)CCC(=O)c1ccoc1)C(=O)O | 0.2 | 1.5 |
| CCCCS(=O)(=O)NC1=NCN(Cc2ccco2)CN1 | 0.5 | -7.5 |

Some of the entries so far, as labelled records.
COC(=O)C1=C(C)N=C2SCCC(=O)N2C1c1ccccc1 (stereo unspecified)
  A1 inh = 0.1	BJeLR viab HTS = 2.7

C=CCN1C(=O)C(Cc2ccc(O)cc2)NC1=S (stereo unspecified)
  A1 inh = 0.6	BJeLR viab HTS = 2.6

CN(Cc1ccccc1)C(=O)C1CCCN(Cc2ccc(Cl)cc2)C1 (stereo unspecified)
  A1 inh = x	BJeLR viab HTS = 0.3

COc1ccc(C2=NN(C(=O)c3ccccc3O)C(O)(C(F)(F)F)C2)cc1 (stereo unspecified)
  A1 inh = x	BJeLR viab HTS = 6.0

Following part
| Structure | A1 inh | BJeLR viab HTS |
| --- | --- | --- |
| C[C@@H]1CN([C@@H](C)CO)C(=O)c2cc(NS(=O)(=O)c3cccs3)ccc2O[C@H]1CN(C)S(C)(=O)=O | 0.6 | -1.8 |
| CC(CC(C)O[C@@H]1O[C@H](CO)[C@@H](O)[C@H](O)[C@H]1O)OC(=O)/C=C/c1ccc(O)cc1 (stereo partly specified) | 0.0 | 5.3 |
| COc1ccc(S(=O)(=O)N(C)C[C@H]2Oc3c(NC(=O)C4CCCCC4)cccc3C(=O)N([C@H](C)CO)C[C@H]2C)cc1 | x | 4.6 |
| COc1cc2ccc(=O)oc2c(CC=C(C)C)c1OC | -0.1 | x |
| C[C@H]1CN([C@@H](C)CO)C(=O)c2cccc(NC(=O)c3ccc(-c4nccs4)cc3)c2O[C@H]1CN(C)C | x | -1.9 |
| CCOC(=O)c1sc(N)c(C(=O)OCC)c1C | 0.8 | -8.3 |

Only part of the results is shown; count on the stated rates, not on these rows.
